E coli growth – E. coli growth inhibition; Escherichia coli growth, OD600, 23 h; hits give low values; OD600 absorbance (no concentration beside the values); 0.21% of 330,000 active;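 active means OD600 absorbance below the run mean of sample wells minus 3.6 SD, in any replicate, cut at about 0.56 in these data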;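 further: stock transfer was 300 nL into about 60 µL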
UCH37 inh – blocks the human deubiquitinase UCH37. inhibition, % (no concentration beside the values). purified proteasome/UCH37, Ub-AMC cleavage fluorescence. Q9Y5K5. AID 588478. 0.33% of 330,000 active;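 active means mean of two replicates above 20%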;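 further: 0% = compound-free wells with enzyme and 100% = wells lacking proteasome; stock transfer was 100 nL into about 20 µL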
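Schedule: 30 min plus 25 min, room temperature / Material: human UCH37 within purified proteasomes / Technique: AMC fluorescence intensity at 355/460 nm / Buffer or medium: pH 7.4 Tris-HCl (50 mM) with ovalbumin, ATP-MgCl2, DTT / Controls: wells without proteasome as full block, compound-free enzyme plus substrate as uninhibited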
ALR H2O2 inh – inhibitors of human sulfhydryl oxidase ALR. P55789. purified ALR, DTT oxidation, H2O2 HRP-luminol luminescence. AID 485317. 3.8% of 290,000 active. inhibition, % (test concentration not listed);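 active means mean and each replicate at 75% or more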;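 further: stock transfer was 7.5 nL into about 7.5 µL; 0% = neutral wells and 100% = wells with inactivated enzyme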
Target sequence (P55789 whole entry, looked up): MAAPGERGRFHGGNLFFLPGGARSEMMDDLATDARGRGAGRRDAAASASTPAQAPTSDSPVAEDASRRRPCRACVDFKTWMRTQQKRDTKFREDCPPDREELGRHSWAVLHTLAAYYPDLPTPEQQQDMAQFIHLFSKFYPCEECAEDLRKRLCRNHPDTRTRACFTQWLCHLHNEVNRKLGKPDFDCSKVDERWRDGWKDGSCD
FGF22 binding – FGF22 (human) thermal shift binding | Q9HCT0 | recombinant FGF22 thermal shift, SYPRO orange fluorescence; percent of sucrose octasulfate shift, DMSO zero | calls only at 9.99 µM | 1.5% of 340,000 active;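 active means melting point raised past a set limit in the mean and every replicate; three in four hits are not shown here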
Target sequence (Q9HCT0 whole entry, looked up): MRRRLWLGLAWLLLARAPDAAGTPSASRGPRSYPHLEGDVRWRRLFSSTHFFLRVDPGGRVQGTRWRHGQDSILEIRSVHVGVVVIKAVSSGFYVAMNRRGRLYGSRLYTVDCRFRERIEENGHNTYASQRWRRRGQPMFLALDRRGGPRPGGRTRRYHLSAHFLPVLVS
rRNA inh HTS – inhibits bacterial ribosomal RNA function over humanized ribosomes. E. coli WT GFP vs humanized-ribosome RFP mutants, fluorescence, 24 h; hits give low values; DMSO median 0, no signal -100. AID 720706. GFP signal change (wild-type ribosome), % (concentration not given with the values). 1.6% of 350,000 active;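 active means significant combined selectivity score with lowered wild-type GFP, culture density cut under 30%, mutant RFP and density less affected; inactive means any of these conditions unmet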; further: one replicate is shown; some compounds called inactive have numbers as strong as hits
Beta2AR agonist – activates human beta-2 adrenergic receptor causing internalization | AID 504454 | Am2.2-beta2AR cells, FAP receptor internalization, flow cytometry; reference of the scale not given here | response, % (no concentration beside the values) | 0.43% of 340,000 active;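 active means response above a set limit, near 3 SD of response in nonfluorescent compounds, cut at about 42% in these data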;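 further: stock transfer was 100 nL into about 11 µL; a reference agonist was the positive control; negative values mostly stem from fluorescent compounds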
HNF4A DNA FP – change in binding of human HNF4 alpha to DNA | HNF4a-FITC DNA binding, fluorescence polarization, 1 h | activity change, % at 10 µM | 0.3% of 360,000 active | AID 1224865; in the data active means activity change above about 30%, passing the limit was not always enough;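 further: controls were the assay level and a saturating level of protein; the project sought stronger binding though the title names inhibitors; some compounds called inactive have numbers as strong as hits; positive values seem to mean higher polarization but the record does not say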
Target sequence (P41235 whole entry, looked up): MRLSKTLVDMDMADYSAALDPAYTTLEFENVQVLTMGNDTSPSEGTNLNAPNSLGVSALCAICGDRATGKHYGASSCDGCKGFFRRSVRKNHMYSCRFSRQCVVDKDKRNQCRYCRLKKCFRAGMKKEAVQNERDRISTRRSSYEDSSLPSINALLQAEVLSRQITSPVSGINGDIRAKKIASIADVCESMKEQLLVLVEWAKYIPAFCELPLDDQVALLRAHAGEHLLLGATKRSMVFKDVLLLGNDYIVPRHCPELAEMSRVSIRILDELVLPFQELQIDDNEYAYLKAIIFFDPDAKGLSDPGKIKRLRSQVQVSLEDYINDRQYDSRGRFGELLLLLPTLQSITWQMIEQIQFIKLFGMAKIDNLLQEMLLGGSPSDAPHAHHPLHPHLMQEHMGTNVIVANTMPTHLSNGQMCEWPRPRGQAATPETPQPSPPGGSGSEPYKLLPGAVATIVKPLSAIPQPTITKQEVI
rRNA inh HTS OD600 – second read-out of rRNA inh HTS, no call of its own (marks repeat the call); OD600 change, %; measured here: OD600 growth;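 optical density of the mix in the first replicate; 0 = DMSO median and -100 = no signal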
rRNA inh HTS RFP – recorded beside rRNA inh HTS, whose call it bears; RFP signal change, %; measured here: RFP humanized mutant strains;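 first replicate; 0 = DMSO median and -100 = no signal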
The depositor's hits bear a star; i = inactive; · = no result given.

SMILES	E coli growth	UCH37 inh	ALR H2O2 inh	FGF22 binding	rRNA inh HTS	rRNA inh HTS OD600	rRNA inh HTS RFP	Beta2AR agonist	HNF4A DNA FP
Cc1ccc2oc(=O)c3cc(C(=O)NCc4ccco4)sc3c2c1	0.77	-20	19	i	-10	-17	-3.0	0	-0.2
COc1cccc(NC(=O)CSc2nc3c(c(-c4ccco4)c2C#N)CCCC3)c1	0.73	-16	-8	·	·	·	·	-2	5.2
O=C(Nc1cccc2cccnc12)c1cc(F)c(F)cc1Cl	0.71	0.7	-7	i	3	16	-0.6	-6	2.3
CCOC(=O)C1CCN(S(=O)(=O)Cc2ccccc2)CC1	0.65	0.3	-2	i	1	1	5.3	0	1.9
CCOc1ccccc1C(=O)NN1CCOCC1	0.74	1.5	-12	i	1	6	-0.7	-15	1.5
Cc1cc(C)n2nc(C(=O)NCCc3ccccc3)nc2n1	0.72	1.4	9	·	·	·	·	-20	-2.9
O=c1cc(CN2CCN(c3ccccc3)CC2)c2c(ccc3ccccc32)o1	0.72	-2.7	-11	·	·	·	·	19	1.4
COc1ccc(OC)c(N(CC(=O)Nc2ccccc2F)S(=O)(=O)c2ccccc2)c1	0.69	3.2	-7	i	-24*	-6.0*	1.3*	1	2.1
O=C(COC(=O)c1cccc(Cl)c1)NCc1ccccc1	0.72	0.5	1	·	4	9	2.5	12	-2.2
COc1ccc(C2NC(=S)NC3=C2N2CCC3CC2)cc1 (stereo not drawn)	0.6	1.0	0	i	7	7	-2.6	8	-3.1
COc1ccccc1CNS(=O)(=O)c1ccc2c(c1)NC(=O)CO2	0.7	1.3	-3	i	-1	1	-1.9	-2	0.5
CC(OC(=O)c1ccc2c(=O)n3c(nc2c1)CCCCC3)C(N)=O (stereo not drawn)	0.65	1.3	-26	i	3	-1	-0.7	11	-2.8
COc1cccc(NC(=O)NCc2ccccc2Cl)c1	0.67	3.5	-1	i	-14	-9	-2.5	0	-5.4
COc1cccc2sc(N3CCN(C(=O)C4COc5ccccc5O4)CC3)nc12 (stereo not drawn)	0.64	2.5	-3	i	-19	-40	-2.8	9	0.1
CNC(=O)N(O)C1N(/N=C/c2ccccc2O)C(=S)SC1(C)C (stereo not drawn)	·	·	·	i	1	-6	-6.7	-3	-1.8
COc1ccc(CN2C(=O)c3cccnc3C2Nc2ccc(C)cc2)cc1 (stereo not drawn)	0.68	1.3	13	·	·	·	·	-8	4.6
Cn1c(/C(C#N)=C(\O)c2ccc(Br)s2)nc2ccccc21	0.7	-68	-2	i	10	12	1.2	-12	6.5
CC(=O)OC1CCC2(C)C(CCC3C4CC=C(C(C)=O)C4(C)OC(=O)CC32)C1 (stereo not drawn)	·	·	·	i	8	6	4.9	·	1.9
Nc1cccc2c1nnn2C1OC(CO)C(O)C(O)C1O (stereo not drawn)	0.71	-10	-58	i	7	8	3.3	-1	5.9
Cc1ccccc1C(=O)NC1CCN(C(=O)N2CCOCC2)CC1	0.77	-2.6	-4	·	·	·	·	-1	-0.6

One compound at a time (already shown). Order of screens: E coli growth, UCH37 inh, ALR H2O2 inh, FGF22 binding, rRNA inh HTS, rRNA inh HTS OD600, rRNA inh HTS RFP, Beta2AR agonist, HNF4A DNA FP
Record of COc1cccc(NC(=O)NCc2ccccc2Cl)c1 = 0.67, 3.5, -1, i, -14, -9, -2.5, 0, -5.4
Record of COc1ccccc1CNS(=O)(=O)c1ccc2c(c1)NC(=O)CO2 = 0.7, 1.3, -3, i, -1, 1, -1.9, -2, 0.5
Record of CC(=O)OC1CCC2(C)C(CCC3C4CC=C(C(C)=O)C4(C)OC(=O)CC32)C1 (stereo not drawn) = ·, ·, ·, i, 8, 6, 4.9, ·, 1.9
Record of CNC(=O)N(O)C1N(/N=C/c2ccccc2O)C(=S)SC1(C)C (stereo not drawn) = ·, ·, ·, i, 1, -6, -6.7, -3, -1.8
Record of CCOC(=O)C1CCN(S(=O)(=O)Cc2ccccc2)CC1 = 0.65, 0.3, -2, i, 1, 1, 5.3, 0, 1.9

(continued)
SMILES	E coli growth	UCH37 inh	ALR H2O2 inh	FGF22 binding	rRNA inh HTS	rRNA inh HTS OD600	rRNA inh HTS RFP	Beta2AR agonist	HNF4A DNA FP
CCC1CCc2sc(C(=O)NCC(c3ccc(OC)cc3)N3CCCC3)cc2C1 (stereo not drawn)	·	·	-1	i	-34	-69	8.1	22	0.0
Cc1nc(N2CCN(c3ccc(Cl)cc3)CC2)[nH]c(=O)c1C	0.71	3.5	·	i	7	14	-0.8	3	2.3
COc1ccccc1NC(=O)Nc1ccnn1C1CCN(C(=O)c2ccccn2)CC1	0.68	0.1	-3	i	14	12	1.2	-6	-0.9
N#CC(CC(=O)c1ccc(Cl)cc1)c1ccccc1 (stereo not drawn)	0.71	4.4	·	i	-8	-23	-15	30	-1.3
Cc1ccc(S(=O)(=O)NC(=O)Nc2nc(-c3ccc(F)c(F)c3)cs2)cc1	0.67	0.6	0	i	-5	12	-2.8	-8	-4.0
Cc1cc([N+](=O)[O-])nn1CC(=O)NCc1ccccc1	0.68	0.4	-4	i	-3	-5	-4.9	-1	4.5
CCOc1ccc(S(=O)(=O)c2cn(C)c3cc(OC)c(OC)cc3c2=O)cc1	0.66	-1.9	-3	i	3	3	-2.1	-10	4.9
O=C(Nc1ccc2oc(=O)ccc2c1)c1cc([N+](=O)[O-])ccc1N1CCOCC1	0.65	9.5	1	i	15	7	4.3	-8	-3.6
O=C(Nc1ccccc1Cl)NC1(C(=O)NCc2ccncc2)CCCCC1	0.73	3.2	1	i	7	7	4.0	6	4.0
O=C(NN1CCOCC1)c1cc(-c2ccncc2)nc2ccccc12	0.74	2.6	3	i	13	6	-1.0	3	4.5
CCN(CC)CC#CCOC(c1ccccc1)c1ccccc1	0.62	0.5	0	i	-24	-16	-6.1	2	1.6
CCSc1nc2ccc(OC)cc2cc1C#N	0.74	-2.2	-6	·	·	·	·	-3	1.0
Cc1ccc(S(=O)(=O)N2CCOCC2)cc1C(=O)NC1CCCCC1	0.65	1.2	-3	·	·	·	·	2	1.2
CC(C)Cn1c(N)c(C(=O)COC(=O)/C=C/c2ccccc2)c(=O)n(C)c1=O	0.65	0.6	3	i	-12	-22	2.9	-1	-1.5
Cc1cc(C)nc(N2CCCC(C(=O)Nc3ccc4nc(C)c(C)nc4c3)C2)n1 (stereo not drawn)	0.66	-0.4	54	·	·	·	·	-7	0.9
Cc1cc(C)cc(C(=O)N2CCCCC2)c1	0.66	0.7	·	i	6	15	0.6	-5	3.7
COc1ccc(NC(=O)CN(C)CC(=O)Nc2ccc(C)c(S(=O)(=O)N3CCCCC3)c2)cc1	0.7	2.2	·	i	-23	-41	-5.0	22	3.6
CCN1CCN(C(=O)Nc2cccc3ccccc23)CC1	0.68	6.4	·	·	·	·	·	-3	-6.0
CSCC(=O)N1CCC(n2nccc2NC(=O)CCc2ccccc2)CC1	0.67	4.4	-2	i	10	14	-1.3	1	1.9
Clc1ccc(-c2nc(NCCN3CCOCC3)c3ccccc3n2)cc1	0.65	0.1	18	·	·	·	·	4	1.3

Four compounds out of the list above, ordered by the number in rRNA inh HTS RFP, low to high.
mol | rRNA inh HTS RFP
N#CC(CC(=O)c1ccc(Cl)cc1)c1ccccc1 (stereo not drawn) | -15
CCN(CC)CC#CCOC(c1ccccc1)c1ccccc1 | -6.1
CSCC(=O)N1CCC(n2nccc2NC(=O)CCc2ccccc2)CC1 | -1.3
COc1ccccc1NC(=O)Nc1ccnn1C1CCN(C(=O)c2ccccn2)CC1 | 1.2

Other records follow:
SMILES	E coli growth	UCH37 inh	ALR H2O2 inh	FGF22 binding	rRNA inh HTS	rRNA inh HTS OD600	rRNA inh HTS RFP	Beta2AR agonist	HNF4A DNA FP
CC(=O)c1c(C)[nH]c(C(=O)CSc2nc3ccccc3c(=O)n2CCCN2CCOCC2)c1C	0.7	-4.8	-3	·	·	·	·	-2	-2.3
Cn1c(N)c(C(=O)CSc2nnc(-c3c[nH]c4ccccc34)n2C2CC2)c(=O)[nH]c1=O	0.7	6.1	1	i	5	19	-1.1	-1	-1.8
NC(=O)C1CCN(C(=O)c2cc3n(n2)C(C(F)(F)F)CC(c2ccco2)N3)CC1 (stereo not drawn)	·	1.6	-5	i	5	11	-2.0	1	-5.7
CCOC(=O)Cn1c(=NC(=O)c2sc3ccccc3c2Cl)sc2cc(S(N)(=O)=O)ccc21	0.7	-197	3	·	·	·	·	-5	-16
CN(c1ccc(F)cc1)S(=O)(=O)c1ccc(Cl)c(C(=O)NCC2CCCO2)c1 (stereo not drawn)	0.69	-3.5	·	i	1	1	0.5	-6	-3.6
O=C(O)CC(c1cccc2ccccc12)N1Cc2ccccc2C1=O (stereo not drawn)	0.63	0.9	0	·	-11	-15	-6.3	-2	0.3
COc1ccc(N(C)S(=O)(=O)c2ccc3c(c2)CCN3C(=O)C2CC2)c(OC)c1	0.71	5.2	-8	i	-26	-26	-2.4	-4	0.4
CC1CN(c2ccc([N+](=O)[O-])cc2C(=O)N2CCOCC2)CC(C)N1 (stereo not drawn)	0.68	8.3	-3	·	·	·	·	5	0.4
Cc1ccccc1-c1cc2nc(NCCOc3ccccc3)n(C)c(=O)c2s1	·	·	·	i	6	15	-3.6	·	-4.3
Cc1ccnc(NS(=O)(=O)c2ccc(NC(=O)c3ccc(C)o3)cc2)n1	0.71	3.2	-6	·	·	·	·	10	2.7
Cc1nn(C)cc1C1Nc2ccccc2C(=O)N1O (stereo not drawn)	0.7	17	·	·	·	·	·	-4	0.3
CC(=O)N1CCc2c(sc(NC(=O)C3CCCN3S(=O)(=O)c3cccs3)c2C#N)C1 (stereo not drawn)	0.67	-0.6	-2	i	5	3	-0.1	8	-0.7
CC(=O)n1c2ccccc2c2ccccc21	0.65	-0.4	-10	·	·	·	·	-3	1.6

A portion of the library; count on the stated rates, not on these rows.
